# Bioassay records deposited in PubChem BioAssay by National Center for Advancing Translational Sciences (NCATS).
# D2 ag: agonists of human D2 dopamine receptor (beta-arrestin); actives 0.084% (n = 360,000); DiscoveRx PathHunter D2 beta-arrestin, luminescence, 90 min; 100% = 57 uM dopamine signal; AID 624465; activation, % (no concentration beside the values); P14416; in the data active = activation above about 40%; inconclusive = about 15% to 40%; inactive = below about 15%; also: compound concentration not given in the record; the text of the record calls up to 30% inactive
# Target sequence (P14416 whole entry, looked up): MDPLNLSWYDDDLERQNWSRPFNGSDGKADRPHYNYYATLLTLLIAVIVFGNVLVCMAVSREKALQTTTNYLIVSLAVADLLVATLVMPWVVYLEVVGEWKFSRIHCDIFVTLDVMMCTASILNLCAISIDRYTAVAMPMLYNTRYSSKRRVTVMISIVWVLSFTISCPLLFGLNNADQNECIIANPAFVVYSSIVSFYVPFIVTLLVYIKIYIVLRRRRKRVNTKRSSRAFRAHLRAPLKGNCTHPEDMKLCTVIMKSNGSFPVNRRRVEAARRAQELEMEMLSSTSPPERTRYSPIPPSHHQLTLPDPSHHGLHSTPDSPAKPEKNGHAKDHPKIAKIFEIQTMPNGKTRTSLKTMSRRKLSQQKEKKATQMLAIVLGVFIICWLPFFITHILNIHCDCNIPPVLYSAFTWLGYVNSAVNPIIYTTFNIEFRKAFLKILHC
#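 Agonist mode: compounds alone added to overnight-plated D2 PathHunter cells for 90 min at 37 C, with 57 uM final dopamine (EC100) defining full response. Beta-arrestin recruitment detected by chemiluminescent reagent, read after 1 h at ambient temperature.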
# PINK1 expr mod: changes PINK1 expression; PINK1 immunofluorescence, high-content cytometry, 24 h; Potency, µM (titrated, usually from 76.6 µM), inactives show top-dose activation (PINK1 increase), usual class: activators; actives 0.2% (n = 410,000); AID 624263; active = well fitted activation curve with a large enough effect; inconclusive = small, poorly fitted or top-dose-only effect; inactive = flat fitted curve, though single readings scatter; cell line not stated here;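 also: potency is read from the fitted curve at half-maximal effect; % of control where 0% means no effect; nearly all actives have a fitted effect of over 65% in size; a mitochondrial uncoupler was the plate control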
#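 Readout is PINK1 immunofluorescence, quantified alongside mitochondrial, cell and nuclear markers by laser-scanning microplate cytometry. Cells from a stable line were exposed to compound titrations (5 concentrations) for 24 hours, with CCCP controls.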
# ClpP mod: qHTS Assay for Activators of ClpP. ATP-dependent Clp protease proteolytic subunit (Bacillus subtilis (strain 168)), P80244. purified B. subtilis ClpP, FRET peptide cleavage, 20 min. Potency, µM (doses to about 57.5 µM), inactives show top-dose activity change, negative = active. actives 1.9% (n = 340,000). AID 651965, 2013; active = well fitted falling curve with a large enough effect; inconclusive = small, poorly fitted or top-dose-only effect; inactive = no such curve, though single readings can be large or run the other way; also: potency is read from the fitted curve at half-maximal effect; the source files actives as falling curves though it sought activators and does not explain the sign; nearly all actives have a fitted effect of over 65% in size; many hits overshoot -100%
# Target sequence (P80244 whole entry, looked up): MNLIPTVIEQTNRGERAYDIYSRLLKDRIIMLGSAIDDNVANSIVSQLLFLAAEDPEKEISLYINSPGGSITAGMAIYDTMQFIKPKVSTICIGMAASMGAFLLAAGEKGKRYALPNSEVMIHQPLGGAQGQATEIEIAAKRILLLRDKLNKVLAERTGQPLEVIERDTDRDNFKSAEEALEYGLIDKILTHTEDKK
#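 Buffer: 100 mM Tris/HCl pH8, 100 mM KCl, 0.05% low protease BSA, 2.5% glycerol, 0.01% Tween-20. ClpP 10 microg/mL final; 20 min RT; delta FRET normalized to ADEP and DMSO controls.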
# Sfp inh: blocks B. subtilis Sfp PPTase activity; Biochemical Sfp PPTase activity, qHTS; Potency, µM, for the others: max response, negative = inhibition, most hits filed as inhibitors; actives 3.5% (n = 310,000); AID 1490; active = well fitted inhibition curve with a large enough effect; inconclusive = small, poorly fitted or top-dose-only effect, or another doubt; inactive = no such curve, though single readings can be large or run the other way;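 also: the enzyme is Sfp with the accession as filed and its product quenches rhodamine fluorescence; potency is read from the fitted curve at half-maximal effect; 0% = enzyme reaction without inhibitor and -100% = no enzyme wells; top concentration of the series not given in the record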
#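 After 15 min at room temperature with compound, 15 nM Sfp received 5 uM rhodamine-CoA plus 12.5 uM BHQ-2-ybbR (50 mM Hepes pH 7.6, 10 mM MgCl2). Rate came from the fluorescence difference over 30 min, ex 525/em 598 nm.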
# Menin MLL FP FL: menin-MLL binding inhibition, fluorescein peptide; AID 1766; 290,000 tested, under 10 active; FP activity change, % at 61.4 µM; Fluorescence polarization, fluorescein-MLL peptide displacement from menin; inconclusive = falling polarisation curve, or a change in total fluorescence; inactive = total fluorescence flat and polarisation flat or rising; no compound was filed as active; the % refers to the polarisation; negative = inhibition;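 also: % of control where 0% means no effect; inhibitors lower the polarisation; unlabelled MLL peptide was the positive control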
# gsp ag: agonists of gsp mutant (McCune-Albright syndrome); actives 0.13% (n = 340,000); AID 624287; gsp mutant cells, cAMP HTRF, 30 min; control for the full effect not named in the record; Potency, µM (series often up to 76.9 µM), without a hit: at the top dose activation (cAMP increase), actives largely listed as activators; active = well fitted activation curve with a large enough effect; inconclusive = small, poorly fitted or top-dose-only effect, or another doubt; inactive = no such curve, though single readings can be large or run the other way; cell line not stated here;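 also: phosphodiesterase inhibitor Ro 20-1724 added with compounds to block cAMP breakdown; potency is read from the fitted curve at half-maximal effect; nearly all actives have a fitted effect of over 60% in size; about a fifth of the inactives were tested at one dose only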
#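 Cells in DMEM/10% FBS with G418 were pretreated with compounds in DMSO plus […] (300 uM stock) for 30 min at 37C. cAMP was measured by HTRF (cAMP-d2 plus anti-cAMP antibody-K) after 30 min at room temperature.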
# gsp antag: antagonizes gsp, the McCune-Albright syndrome mutation | gsp-mutant cells, cAMP HTRF, 30 min; control for the full effect not named in the record | Potency, µM (doses to about 76.9 µM), without a hit: top-dose activity change, negative = inhibition, actives largely listed as inhibitors | actives 0.4% (n = 340,000) | AID 624288; active = falling curve of any shape with a large fitted effect; inconclusive = falling curve, mostly with a smaller effect; inactive = flat or rising curve; cell line not stated here;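 also: intracellular cAMP measured with PDE inhibitor Ro 20-1724 present during compound exposure; potency is read from the fitted curve at half-maximal effect; % is scaled to controls: 0 for no effect and ±100 for the full control effect; nearly all actives have a fitted effect of over 65% in size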
#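 G418-selected cells were plated in DMEM/10% FBS for 16-24 h at 37C, then treated with compounds plus the PDE inhibitor […] (300 uM solution added) for 30 min at 37C. Intracellular cAMP was measured by HTRF after 30 min lysis at room temperature.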
# The depositor's hits bear a star; ? = inconclusive; / = not tested or not shown; & = joins results of further samples; [ ] = another dose, or the depositor's remark.
# Values run as follows: D2 ag	PINK1 expr mod	ClpP mod	Sfp inh	Menin MLL FP FL	gsp ag	gsp antag
1) CC(C)(C)S(=O)N1Cc2cc(CO)cc(-c3ccccc3)c2[C@@H]1CCO (stereo partly drawn)
 : 1.8	0.0%	1.2%	/	/	/	4%
2) COc1ccc2nc(SCC(=O)Nc3ccccc3OC)[nH]c2c1
 : 1.0	-1.1%	-2.2%	-1%	-1.7	-2%[15.4 µM]	-6%
3) Cc1ccc([N+](=O)[O-])cc1N=C1C(=O)Nc2ccccc21
 : -16	4.0%	/	2%	-10	-12%[15.4 µM]	-2%
4) CC(O)c1nc2ccccc2n1Cc1ccccc1 (stereo not drawn)
 : -1.7	-0.2%	0.9%	13%	0.0	1%	11%
5) CC(C)Oc1ccc(CN2CCC2(C)C(=O)NCc2cccc3ccccc23)cc1 (stereo not drawn)
 : -6.1	2.0%	-1.0%	/	/	/	/
6) COc1cc(C(=O)N2CCN(c3ccccn3)CC2)cc(OC)c1OC
 : 2.0	1.2%	/	-4%	-0.3	-20%	8%
7) Cc1ccc(/C=C(/C#N)C(=O)NC(C)c2ccccc2)o1 (stereo not drawn)
 : -4.0	2.8%	-14%	22µM*	?	?	5%
8) CC(=O)N1c2ccc(S(=O)(=O)NCCC(=O)NCc3ccc(Cl)cc3)cc2CC1C (stereo not drawn)
 : -2.0	1.2%	-0.8%	16%	?	35%	-3%
9) COc1ccccc1NC1=NC(CO)(CO)CS1
 : 0.3	1.8%	-0.6%	1%	6.2	28%	9%
10) CN(Cc1ccccc1)C(=O)N[C@@H](Cc1ccccc1)C(=O)O
 : -4.3	-0.8%	0.0%	8%	1.9	-32%[inhibitor]	3%
11) c1ccc(CSc2ccc(-c3ccco3)nn2)cc1
 : -2.5	3.6%	-4.7%	32µM*	1.2	3%[15.4 µM]	-1%
12) Cc1ccccc1/[N+]([O-])=C/c1cccs1
 : 0.3	1.2%	2.0%	18%	1.8	-22%	18%
13) O=C(CN1CCN(Cc2ccc3c(c2)OCO3)CC1)NCC(F)(F)F
 : -1.1	0.6%	/	10%	-5.3	-12%[15.4 µM]	3%
14) CCc1nnc(NC(=O)CSc2nc3cc(OC)c(OC)cc3cc2C)s1
 : -1.3	12%	/	7%	5.1	-9%	5%
15) Cc1cc(NS(=O)(=O)c2ccc(NC(=O)CN3C(=O)NC(C)(c4ccccc4)C3=O)cc2)nc(C)n1 (stereo not drawn)
 : -3.0	0.2%	1.1%	/	/	-6%[15.4 µM]	23%
16) CCC(C)(C)c1ccc(OCCCC[n+]2ccccc2)c(C(C)(C)CC)c1
 : -8.8	-1.2%	1.2%	50µM*	-4.1	-12%	9%
17) Clc1ccc(Cc2nc(-c3cccnc3)no2)cc1
 : -2.1	15%[38.3 µM]	0.1%	-4%	2.5	?	12%
18) Cc1ccnc(NC(=O)COc2ccc3c(c2)CCC3)c1
 : -6.6	2.1%	-1.6%	/	/	0%[15.4 µM]	2%
19) CCN(CC)C(=O)CC(c1ccc(F)cc1)c1ccco1 (stereo not drawn)
 : -1.6	6.6%	2.2%	-28%	3.6	-1%	-7%
20) C=CCN(CC=C)C(=O)c1cc2ccccc2c(=O)o1
 : -3.4	0.0%	-24%	-2%	9.0	?	7%
21) O=C(O)c1cccc(Cn2c(Cl)c(/C=N/NC(=O)c3ccccc3Cl)sc2=O)c1
 : -0.1	-0.6%	-0.5%	7%	11	-5%	-10%
22) C#CCSc1nnc(CNS(=O)(=O)c2ccc(Br)cc2)n1C
 : -6.7	-1.3%	0.4%	19%	/	-2%	11%
23) COc1ccc(N2CCN(CCNC(=O)c3ccc(NC(=O)C4CCCO4)cc3)CC2)cc1 (stereo not drawn)
 : -2.9	-2.0%	-3.0%	-7%	-3.3	-31%[inhibitor]	1%
24) COc1ccc(OCC(=O)Nc2nonc2NC(=O)COc2ccc(OC)cc2)cc1
 : -0.6	-0.7%	/	-20%	-0.3	9%[15.4 µM]	-11%
25) COc1ccc2nc(SCC(=O)NCc3ccc(F)cc3)[nH]c2c1
 : -0.2	-1.5%	/	9%	/	1%[15.4 µM]	5%
26) O=C1NN(c2ccccc2)C(=O)C1=Cc1ccccc1O
 : -4.0	4.1%	1.0%	/	/	2%	/
27) NC(=O)NC(=O)CSc1nc2sc(-c3ccccc3)cc2c(=O)n1-c1ccccc1
 : 2.2	4.3%	/	22%	-7.9	11%	-22%
28) Cc1ccc(C(=O)NCc2ccc(F)cc2)cc1NC1=NC2CS(=O)(=O)CC2S1 (stereo not drawn)
 : 2.6	-1.7%	0.4%	0%	-5.7	0%	6%
29) CCN(CC)CCNC(=O)C1(O)c2cc(Br)ccc2NC(=O)N1c1c(F)cccc1F (stereo not drawn)
 : 1.9	-2.7%	0.8%	-2%	5.0	30%	15%
30) Cc1cccc(Cn2cnc3c(sc4nc(C)cc(C)c43)c2=O)c1
 : -1.6	10%	/	-11%	-3.4	4%[15.4 µM]	6%
31) COc1cc(/C=C2/C(=O)ON=C2C)ccc1OCc1cccc(F)c1
 : -2.4	-2.0%	1.3%	-29%	-9.5	23%	-14%
32) COc1cccc(C(=O)NCCC2=CCCCC2)c1
 : -2.3	0.3%	-0.4%	-4%	-1.4	-3%	-18%
33) CC(=O)Oc1ccc(N2C(=O)C3C4C=CC(CC4)C3C2=O)cc1[N+](=O)[O-] (stereo not drawn)
 : -4.4	1.7%	1.7%	10%	6.0	1%	5%
34) CCc1c(C(=O)NCc2ccc3c(c2)OCO3)[nH]c(C)c1C(C)=O
 : -1.1	/	-1.2%	-4%	-7.0	32%	-20%
35) O=C(Nc1ccc(O)cc1C(=O)O)c1cccs1
 : -0.6	0.5%	/	-1%	1.7	-6%	4%
36) COc1ccc(Cc2noc(CN3CCC(c4ccncc4)CC3)n2)cc1OC
 : -3.3	2.2%	0.3%	5%	4.3	7%	-2%
37) Cc1cc(C(N)=O)nn1-c1c(Cl)cc(Cl)cc1Cl
 : -2.3	0.8%	2.3%	2%	-6.2	10%	-1%
38) COc1ccc(C2CC(c3c(-c4ccccc4)c4cc(Cl)ccc4[nH]c3=O)=NN2C(=O)CCC(=O)O)cc1 (stereo not drawn)
 : -3.1	1.4%	/	-20%	7.7	14%[15.4 µM]	-10%
39) COc1cc(C(c2sc3nc(C)nn3c2O)N2CCC3(CC2)OCCO3)cc(OC)c1OC (stereo not drawn)
 : -0.8	-0.9%	-1.4%	-2%	-1.9	0%	-12%
40) COC(=O)c1ccc(C2C(C(C)=O)=C(O)C(=O)N2CCO)cc1 (stereo not drawn)
 : -1.2	1.1%	-3.5%	19%	-0.7	-53%[inhibitor]	1%
41) O=C(CCN1CCN(S(=O)(=O)c2ccc(Cl)cc2)CC1)Nc1ccccc1F
 : 1.6	0.8%	/	-1%	-0.4	-18%[15.4 µM]	-9%
42) CCOC(=O)Cc1csc(NC(=O)CC)n1
 : -0.3	/	-1.9%	0%	0.5	-1%	1%
43) Cc1ccc(N2CCN(C(=O)c3ccccc3F)CC2)c(C)c1
 : -0.4	2.2%	1.7%	-4%	1.4	?	9%
44) COC(=O)C(=N/Nc1ccccc1C(=O)OC)/C(C)=N/O
 : ?	-0.1%	0.4%	-8%	0.9	0%[15.4 µM]	7%
45) CC(C)CNC(=O)/C=C/C(=O)O
 : -3.8	5.9%	0.8%	20%&7%	2.7&-1.3	1%	10%
46) COc1cc(C(=O)OCC(=O)N(C)C)cc(NC(=O)c2ccco2)c1OC
 : -1.7	-2.1%	?	13%	2.1	?	3%
47) Cc1cccc(C)c1NC(=O)C(=O)NCCOc1ccc(Cl)cc1
 : -3.6	-0.8%	1.4%	7%	2.8	-2%	-7%
48) Cc1ccc(-c2noc(CN3CCCCC3)n2)cc1
 : -2.8	1.7%	-1.7%	11%	1.5	?	9%
49) O=Cc1c(NCc2ccco2)nc2ccccn2c1=O
 : 0.3	-0.1%	/	3%	-1.8	1%[15.4 µM]	-7%
50) CSc1ncc(Cl)c(C(=O)Nc2ccc(NC(C)=O)cc2)n1
 : -0.9	3.4%&1.7%	-2.6%	29%	-0.3	?	5%
51) CN(C)CCCOC(=O)C1c2ccccc2Oc2ccccc21
 : -3.9	0.6%	-1.7%	8%	0.0	-2%	6%
52) CCOC(=O)c1[nH]c(C)c(C(=O)Nc2ccccc2C)c1C
 : 0.8	2.8%	-3.9%	17%	1.1	-40%[inhibitor]	2%
53) CCc1cccc(CC)c1NC(=O)CO/N=C(\N)CC(=O)NC1CCCCC1
 : -5.5	2.0%	-1.8%	7%	-0.4	-19%	16%
54) O=C(O)/C=C/C(=O)Nc1ccc(C(=O)c2ccccc2)cc1
 : -7.3	3.0%	-0.4%	1%	-1.2	14%	-8%
55) COc1ccc(NC(=S)Nn2cnnc2)c(OC)c1
 : -1.8	-0.7%	-0.6%	18µM*	/	27%[15.4 µM]	-4%
56) Cc1ccc(NC(=O)CNC(=O)c2ccc(OC(F)F)cc2)cc1S(=O)(=O)N1CCCCCC1
 : 1.6	1.4%	0.3%	/	/	11%	-11%
57) CC(C)CN(C(=O)COC(=O)c1ccc(Br)cc1)c1c(N)n(Cc2ccccc2)c(=O)[nH]c1=O
 : -0.8	-2.5%	-1.8%	/	/	-18%	9%
58) CC1Cc2ccccc2N1C(=O)C1CCCCN1S(=O)(=O)c1ccccc1 (stereo not drawn)
 : -1.8	-2.4%[38.3 µM]	1.6%	7%	-0.9	-31%[inhibitor]	-12%
59) Cc1cccc(CSCC(=O)N2CCN(S(=O)(=O)c3ccccc3C#N)CC2)c1
 : 1.6	1.1%	-0.4%	/	/	-6%	/
60) Oc1c(CN2CCOCC2)ccc2ccccc12
 : 8.6	0.3%	/	6%	1.2	-9%	-7%
61) Cc1cc(C)cc(-n2ncc3c2CCCC3NC(=O)C2(C(N)=O)CC2)c1 (stereo not drawn)
 : 4.8	1.4%	-2.1%	11%	/	8%[15.4 µM]	-14%
